Mtb growth: Mycobacterium tuberculosis H37Rv growth inhibition, putative kinase inhibitor library, confirmatory dose response (AID 2842); inhibition, % at 10 µg/mL, or IC90 in µg/mL where a hit was titrated; actives 5.2% (n = 24,000); M. tuberculosis H37Rv growth inhibition; higher % means a stronger effect; some inactives read as strong as hits;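 active means confirmed in a dose series; about a fifth of its hits are not listed in these tables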;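 further: bacteria incubated one week before Alamar blue readout; 0% = bacteria only wells and 100% = bacteria with high antibiotic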
* = called active by the depositor. This is a subset; rates above refer to the full screens.

SMILES | Mtb growth
COc1ccc(Cl)c2sc(N(Cc3cccnc3)C(=O)c3ccccc3F)nc12 | -16%
COc1cccc(NC(=O)c2sc3nc4c(cc3c2N)C(=O)CC(C)(C)C4)c1 | -2%
O=C(Nc1nc2c(cc3c4c(cccc42)CC3)s1)c1c(F)cccc1F | 2%
Nc1c(C(=O)c2ccc(F)cc2)sc2nc(-c3ccc(Br)cc3)cc(C(F)(F)F)c12 | 8%
CC1Cc2nc(SCC(=O)Nc3nc4ccccc4s3)n(Cc3ccccc3)c(=O)c2S1 (stereo not drawn) | 0%
Cc1cccc(Cn2c(N3CCC(C)CC3)nc3c2c(=O)[nH]c(=O)n3C)c1 | 2%
Cc1cccc(NC(=O)CSc2nc(N)c(NC(=O)c3ccc(F)c(F)c3)c(=O)[nH]2)c1C | -8%
CCc1ccc(NC2CC(=O)N(c3ccc(OC)cc3)C2=O)cc1 (stereo not drawn) | 10%
CC(C)C(=O)Nc1c(C(=O)Nc2ccc3c(c2)OCO3)oc2ccccc12 | -12%
COc1cc2ccccc2cc1C(=O)Nc1nc(-c2ccc(-c3ccccc3)cc2)cs1 | 6%
COc1cccc(OCC(=O)Nc2c(C(=O)Nc3ccc(F)c(F)c3)oc3ccccc23)c1 | -4%
CC(O)Cn1c(N/N=C/c2ccc(N(C)C)cc2)nc2c1c(=O)[nH]c(=O)n2C (stereo not drawn) | -11%
COCCn1c(SCC(=O)Nc2cccc(F)c2)nnc1-c1c[nH]c2ccccc12 | 4%
CC1C(=O)N2CCCc3cc(NC(=O)c4ccccc4Cl)cc1c32 (stereo not drawn) | -8%
CCOc1ccc2ccccc2c1C(=O)Nc1c2c(nn1-c1cccc(Cl)c1)CS(=O)C2 (stereo not drawn) | 1%
O=c1nc(SCc2cccc(F)c2)c2c([nH]1)CCCC2 | -6%
CCC(C(=O)Nc1c(C(=O)Nc2ccc3c(c2)OCCO3)oc2ccccc12)c1ccccc1 (stereo not drawn) | 31%
Cc1ccc(-c2nnc3ccc(SCC(=O)Nc4ccc5c(c4)OCCO5)nn23)cc1 | 13%
Cn1c(Cn2c(=O)sc3ccccc32)nnc1SCc1ccccc1Cl | 2%
COc1ccc(C(=O)c2cn(Cc3cccc(C)c3)c3ccccc3c2=O)cc1 | 59%
O=C(Nc1n[nH]c(=S)s1)c1ccccc1 | -2%
Nc1ncnc(Nc2cccc(Cl)c2)c1[N+](=O)[O-] | 5%
COc1ccc(Cl)c2sc(N(CCCn3ccnc3)C(=O)c3cccs3)nc12 | 1.7µg/mL*
C=C(C)Cn1c(SCCCO)nc2c1c(=O)[nH]c(=O)n2C | 4%
O=C(Nc1nnc(-c2ccc(F)cc2)s1)c1ccccc1I | 9%
CCc1nnc(NC(=O)/C=C\c2ccc3c(c2)OCO3)s1 | -9%
O=C(Nc1nnc(-c2ccc(Cl)cc2)s1)c1c(F)cccc1Cl | -2%
CCCCC(=O)Nc1c(C(=O)Nc2ccc3c(c2)OCO3)oc2ccccc12 | -2%
COC(=O)N1CCc2c(sc(NC(=O)c3cccc(S(C)(=O)=O)c3)c2C(N)=O)C1 | 5%
Cc1cccc(Cn2c(SCCN3CCOCC3)nc3c2c(=O)[nH]c(=O)n3C)c1 | 10%
COc1ccc(-n2c(SC(C)C)nc3c([nH]c4ccccc43)c2=O)cc1 | 8%
CC(C)(C)c1ccc(C(=O)Nc2nc(-c3ccc4c(c3)OCO4)cs2)cc1 | 6.7µg/mL*
Cc1cc(C)c(S(=O)(=O)Nc2cc3c4c(c2)C(C)C(=O)N4CCC3)c(C)c1 (stereo not drawn) | 7%
COc1ccc(-c2nnc3c4cc(OC)c(OC)cc4n(Cc4ccccc4OC)cc2-3)cc1 | 5.7µg/mL*
COc1ccccc1-n1c(CNC(=O)c2cccs2)nnc1SCC(=O)Nc1ccc(F)cc1 | -4%
CCC(CC)C(=O)Oc1coc(CSc2nnc(NC(=O)C3CC3)s2)cc1=O | 2%
NC(=O)c1c(NC(=O)C(c2ccccc2)c2ccccc2)sc2c1CCCCC2 | -6%
O=C(Nc1nnc(-c2ccco2)o1)c1cccc(N2C(=O)CCC2=O)c1 | 99%
Cc1ccc(S(=O)(=O)N(c2cccc(C)c2)C2CCS(=O)(=O)C2)cc1 (stereo not drawn) | -5%
Cc1nn2c(SCC(=O)c3cccc([N+](=O)[O-])c3)nnc2[nH]c1=O | -11%
CCOc1ccc(NC(=O)c2oc3ccccc3c2NC(=O)c2ccc([N+](=O)[O-])cc2)cc1 | 1%
Cc1ccc(Cn2cnc3sc(C(N)=O)c(C)c3c2=O)cc1 | 2%
Cc1ccc(Cl)cc1-n1ncc2c(NNC(=O)Cc3cccc4ccccc34)ncnc21 | -6%
COc1ccc(/C=C/C(=O)Nc2nnc(-c3ccc(C)cc3)s2)cc1OC | -7%
COC(=O)c1ccc(/C=N/NC(=O)CCn2nnc3ccccc32)cc1 | -7%
Cc1ccc(C)c(NC(=O)c2c(-c3ccccc3Cl)noc2C)c1 | -8%
Cc1ccc(NCCn2c(C)cn3c4c(=O)[nH]c(=O)n(C)c4nc23)cc1 | 15µg/mL*
Cc1nn2c(SCC(=O)c3ccc(Br)cc3)nnc2[nH]c1=O | -10%
Cc1ccccc1NC(=O)CSc1nc(N)c(NC(=O)c2ccccc2)c(=O)[nH]1 | -8%
Cc1ccccc1C(=O)Nc1sc2c(c1C(=O)O)CCCC2 | -19%

A different layout for six compounds above.
molecule	Mtb growth
Cc1ccc(Cl)cc1-n1ncc2c(NNC(=O)Cc3cccc4ccccc34)ncnc21	-6%
COc1ccc(/C=C/C(=O)Nc2nnc(-c3ccc(C)cc3)s2)cc1OC	-7%
COC(=O)c1ccc(/C=N/NC(=O)CCn2nnc3ccccc32)cc1	-7%
Cc1ccc(C)c(NC(=O)c2c(-c3ccccc3Cl)noc2C)c1	-8%
Cc1ccc(NCCn2c(C)cn3c4c(=O)[nH]c(=O)n(C)c4nc23)cc1	15µg/mL*
Cc1nn2c(SCC(=O)c3ccc(Br)cc3)nnc2[nH]c1=O	-10%

Going on with the list:
SMILES | Mtb growth
COc1cccc(OC)c1C(=O)Nc1nc2c(C)c(C)ccc2s1 | -4%
Clc1cccc(N2CCN(c3ncnc4nc[nH]c34)CC2)c1 | 6%
C1=C(CCNc2ncnc3nc[nH]c23)CCCC1 | 6%
O=C(Nc1nc2c(cc3c4c(cccc42)CC3)s1)c1ccc(S(=O)(=O)N2CCCCCC2)cc1 | -8%
CCCc1nc(SCC(=O)Nc2ccc3c(c2)OCO3)c2c(=O)n(C)c(=O)n(C)c2n1 | 8%
COc1ccc(S(=O)(=O)N2CC(=O)Nc3ccc(Br)cc3C2c2ccccc2)cc1 (stereo not drawn) | 2%
Cc1ccc(-c2c3c(nc4sc(C(=O)c5ccccc5)c(N)c24)CCCC3)o1 | 18%
Nc1nc(SCC(=O)Nc2cccc(F)c2)[nH]c(=O)c1NC(=O)c1ccccc1 | -4%
NC(=O)c1c(NC(=O)CN2C(=O)CCC2=O)sc2c1CCN(Cc1ccccc1)C2 | -10%
Cc1cc2cc(CCNC(=O)c3ccc(F)c(F)c3)c(=O)[nH]c2cc1C | -1%
O=C(Nc1cccc([N+](=O)[O-])c1)c1ccccc1-c1n[nH]c2c1CCCC2 | 5%
CCc1ccccc1Nc1cc(C)nc2ccc(C(=O)O)cc12 | -8%
CCS(=O)(=O)c1ccc(C(=O)Nc2nc(-c3ccc4c(c3)CCCC4)cs2)cc1 | 21%
Cc1ccc(S(=O)(=O)N2CCCc3ccc(NC(=O)c4ccccc4F)cc32)cc1 | 27%
c1ccc(-c2ccc3nnc(SCc4cccnc4)n3n2)cc1 | -2%
COc1ccc(C(=O)c2cn(Cc3ccc(C)cc3)c3cc4c(cc3c2=O)OCCO4)cc1OC | 6%
O=C(Nc1nnc(-c2ccncc2)o1)c1ccccc1Cl | 84%
CN1C(=O)c2cccc(NC(=O)c3cccc(C(F)(F)F)c3)c2C1=O | 1%
O=C(CSCc1ccccc1)Nc1c2c(nn1-c1ccc([N+](=O)[O-])cc1)CSC2 | -4%
CCc1ccc(-c2ccc(SCC(=O)Nc3nnc(C)s3)nn2)cc1 | -5%

Quoted from above for reference:
SMILES | Mtb growth
c1ccc(-c2ccc3nnc(SCc4cccnc4)n3n2)cc1 | -2%
COc1ccc(C(=O)c2cn(Cc3ccc(C)cc3)c3cc4c(cc3c2=O)OCCO4)cc1OC | 6%
O=C(Nc1nnc(-c2ccncc2)o1)c1ccccc1Cl | 84%
CN1C(=O)c2cccc(NC(=O)c3cccc(C(F)(F)F)c3)c2C1=O | 1%
O=C(CSCc1ccccc1)Nc1c2c(nn1-c1ccc([N+](=O)[O-])cc1)CSC2 | -4%
CCc1ccc(-c2ccc(SCC(=O)Nc3nnc(C)s3)nn2)cc1 | -5%

(cont.)
SMILES | Mtb growth
Clc1cc(Cl)c2nc(N3CCOCC3)sc2c1 | -3%
CCOC(=O)c1c(NC(=O)CN2C(=O)CCC2=O)sc(Cc2ccc3c(c2)OCO3)c1C | 6%
CC(C)(C)n1nc2c(c1NC(=O)c1ccc(F)cc1)CS(=O)C2 (stereo not drawn) | 9%
O=C(Cn1ccn(-c2cccc3ccccc23)c(=O)c1=O)Nc1ccc(Br)cc1F | -8%
CCOc1ccccc1C1NC(=O)NC(C)=C1C(=O)Nc1ccc(I)cc1 (stereo not drawn) | 72%
CCCc1nc(SCC(=O)Nc2ccccc2F)c2c(=O)n(C)c(=O)n(C)c2n1 | 0%
Cn1cc(SCC(=O)Nc2nc3ccccc3s2)c2ccccc21 | -1%
Cc1ccc(NC(=O)CSc2nnc3[nH]c(=O)ccn23)c(C)c1 | -18%
O=C(CSc1ccc2nnc(-c3ccncc3)n2n1)Nc1ccccc1C(F)(F)F | -10%
CCOc1ccccc1C(=O)Nc1cc2c3c(c1)C(C)C(=O)N3CCC2 (stereo not drawn) | 30%
CC1CCCCN1S(=O)(=O)c1ccc(C(=O)Nc2sccc2C(N)=O)cc1 (stereo not drawn) | 49%
CN(C)S(=O)(=O)c1ccc(C(=O)NCC(=O)NNc2ncnc(N)c2[N+](=O)[O-])cc1 | 2%
O=C(COc1ccc(Br)cc1)N/N=C/c1ccco1 | -7%
CC(C)CCSc1nc2c(c(=O)[nH]1)C(c1cccs1)C1=C(CC(C)(C)CC1=O)N2 (stereo not drawn) | -2%
COc1ccc(N2CC(NC(=O)Nc3ccc(Oc4ccccc4)cc3)CC2=O)cc1 (stereo not drawn) | -5%
O=C(Nc1ccc(Br)cc1)c1ccc(S(=O)(=O)N2CCCCC2)cc1 | 14%
COc1cc(C2NC(=O)c3ccccc3N2)cc(OC)c1OC (stereo not drawn) | 4%
CC(C)(C)NC(=O)Nc1nnc(SCC#N)s1 | -15%
O=C1CCc2cc(S(=O)(=O)Nc3cc(Cl)cc(Cl)c3)cc3c2N1CC3 | -2%
COc1ccc(C(=O)CSc2nnc3ccc(-c4ccccc4)nn23)cc1 | -11%

Part of the list above in order of molar mass, ascending.
SMILES | Mtb growth
COc1cc(C2NC(=O)c3ccccc3N2)cc(OC)c1OC (stereo not drawn) | 4%
O=C1CCc2cc(S(=O)(=O)Nc3cc(Cl)cc(Cl)c3)cc3c2N1CC3 | -2%
CC1CCCCN1S(=O)(=O)c1ccc(C(=O)Nc2sccc2C(N)=O)cc1 (stereo not drawn) | 49%

More records follow:
SMILES | Mtb growth
CCOC(=O)CCC(=O)Nc1c(C(=O)Nc2ccc3c(c2)OCO3)oc2ccccc12 | -4%
CN1CCc2c(sc(NC(=O)c3ccc(-c4ccccc4)cc3)c2C(N)=O)C1 | -9%
Cc1[nH]c2ccccc2c1SCC(=O)Nc1ccc(F)cc1 | 5%
CCc1nnc(NC(=O)c2ccccc2)s1 | 8%
CC(=O)Nc1ccc(N=C2NC(=O)/C(=C\c3ccc(C)o3)S2)cc1 | -3%
O=C(Nc1nnc(-c2cccnc2)o1)c1ccccc1Cl | 53µg/mL*
Cc1c(C)n2c(SCC(=O)NCc3ccccc3Cl)nnc2[nH]c1=O | -8%
COC(=O)Cn1c(=NC(=O)c2cccc(OC)c2)sc2cc(OC)ccc21 | -8%
COc1ccc(-c2nnc3ccc(SCc4cccc(C)c4)nn23)cc1OC | -4%
COc1ccccc1NC(=O)CN1C(=O)C2(SCC(=O)N2c2cc(C)cc(C)c2)c2ccccc21 (stereo not drawn) | 3%
Nn1c(SCC(=O)Nc2ccc(Cl)cc2Cl)nnc(Cc2ccccc2)c1=O | -4%
O=C(c1ccco1)N1CCN(C(c2cccs2)c2sc3ncnn3c2O)CC1 (stereo not drawn) | -5%
Cc1cccc(C(=O)Nc2c(C(=O)Nc3ccccc3)oc3ccccc23)c1 | 1%
COC(=O)c1ccc(NC(=O)/C=C/C(N)=O)cc1 | 15%
CCOC(=O)c1c(NC(=O)c2cc(-c3ccccc3)nc3ccccc23)sc2c1CCCCC2 | 7%
Cc1cccc(-n2c(C)cn3c4c(=O)n(CC(N)=O)c(=O)n(C)c4nc23)c1C | 2%
CC(=O)N1CCc2c(sc(NC(=O)c3coc4ccccc4c3=O)c2C#N)C1 | 7%
O=C1N=c2ccc(Br)cc2=C1c1sc(=S)n(NC(=O)c2ccccc2)c1O | -3%
COc1cccc(-c2nc(C(N)=O)c3[nH]c(=O)n(-c4ccc(F)cc4)c3n2)c1OC | -7%
O=C(Cc1cccc2ccccc12)NNc1ncnc2c1cnn2-c1ccc(Cl)cc1 | -6%
Cc1ccc2c(c1)NC(=O)c1cc(NS(=O)(=O)c3ccc(F)c(Cl)c3)ccc1O2 | 0%
O=C(Nc1nc(-c2ccc(Oc3ccccc3)cc2)cs1)c1ccc(N2C(=O)CCC2=O)cc1 | 57%
CCn1c(NC2CCCCC2)nc2c1c(=O)[nH]c(=O)n2C | -7%
O=C(NCc1ccc2[nH]c3c(c2c1)CCCC3)NC1CCCCC1 | 43%

High-throughput results deposited in PubChem by Southern Research Institute.
